PrP UTR inh – inhibition of PrP 5' UTR reporter expression. cell-based PrP 5' UTR mRNA reporter, plate reader. inhibition, % (concentration not given with the values). 340,000 tested, 0.35% active;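 active means every replicate at 50% or more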;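 further: 0 = median of the neutral control wells; tested in H4 reporter cells; numbers are from one replicate; inactives centre near -14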
Autofluor counter – counter-screen for toxin protease inhibitors: compound fluorescence; compound autofluorescence counterscreen, microsphere flow cytometry; hits give high values; fluorescence intensity (concentration not given with the values); 360,000 tested, 3.1% active;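 active means at least 3 SD above the mean of all compounds, about 16000 in these data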;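 further: 100 nL of 1 mM stock went into each well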
BJeLR lethal – kills HRASV12-expressing BJeLR cells; AID 1554; BJeLR (HRASV12) viability, CellTiter-Glo ATP luminescence, 48 h; reference of the scale not given here; inhibition, % (concentration not given with the values); 300,000 tested, 0.17% active;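 active means replicate mean above 50%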;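 further: 50 nL library stock added to about 25 µL; numbers are from one replicate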
RN4220 kill – kills Staphylococcus aureus RN4220; S. aureus RN4220 growth, OD600, 16 h; inhibition, % (concentration not given with the values); 330,000 tested, 0.33% active; AID 1259311;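 active means z-score of -3 or lower and OD600 up to 0.18 on both plates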;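 further: plate controls were untreated cells for no effect and reference antibiotic for full effect; stock transfer was 100 nL into about 80 µL; one replicate is shown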
Sa ugtP lethal – growth inhibition of S. aureus ugtP deletion strain; S. aureus RN4220 ugtP deletion, OD600 growth, 16 h; some inactives read as strong as hits; growth inhibition, % (test concentration not listed); 330,000 tested, 0.54% active;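 active means z-score under -3 and OD600 up to 0.15 on both plates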;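 further: plate controls were untreated wells for no effect and antibiotic for full effect; wells of about 80 µL received 100 nL stock; the first replicate is given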
Mtb hypoxia inh – inhibitors of hypoxia-regulated fluorescent reporter in Mycobacterium tuberculosis; M. tuberculosis hypoxia-regulated fluorescent reporter, fluorescence; fluorescence inhibition, % (concentration not given with the values); 300,000 tested, 0.1% active; AID 1159583;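 active means 35 to 45% if threefold the growth effect, above 45% if 1.5-fold the growth effect; inactive means the rest, general growth blockers included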;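 further: wells of about 50 µL received 100 nL stock; 0% = vehicle wells and 100% = reference inhibitor wells; whole bacteria with a GFP reporter of the hypoxia response; strong numbers were not always called active; many hits fall short of the cut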
Mtb hypoxia inh growth – also measured in Mtb hypoxia inh; calls as there; growth inhibition, %; measured here: M. tuberculosis growth (absorbance);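 0% = vehicle and 100% = reference antibiotic; read after six days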
* hit, by the source's call; x = not tested or not shown; & = joins results of further samples. Hits appear at their usual frequency; 4% or so of the library scored in one or more.

1) OC(Cn1cccn1)c1ccccc1 (centres undefined)
2) Cc1ccc(N2CC(C(=O)N3CCCCCC3)CC2=O)cc1 (centres undefined)
3) COc1ccc(C(C)NC(=O)CCc2ccccc2)cc1 (centres undefined)
4) CCC(CC)N1CCN(C(=O)Cc2ccccc2)CC1
5) CNc1nc(NC#N)nc(SC)n1
6) COC(=O)CNC(=O)C1CCCN1C(=O)OC(C)(C)C (centres undefined)

assay / entry	1	2	3	4	5	6
PrP UTR inh	4	-30	-46	-7	-24	3
Autofluor counter	4019	5592	3464	5510	4669	5110
BJeLR lethal	-4	10	0	2	3	3
RN4220 kill	1.9	2.1	1.6	3.9	0.7	4.0
Sa ugtP lethal	4	11	1	3	6	1
Mtb hypoxia inh	x	11	x	9	13	4
Mtb hypoxia inh growth	x	6	x	16	2	4

7) Cc1cccn2cc(-c3ccccc3)nc12
8) Cc1ccc(N2C(=O)C3C4CC(=O)C(c5ccccc54)C3C2=O)cc1C (centres undefined)
9) Cc1ccc(C)n1-c1ccc(-c2nnc3n2CCCCC3)s1
10) COC(=O)c1cc(C(=O)CSc2nc(C)cc(C)n2)ccc1O
11) O=C(NCCNCc1cccs1)c1ccccc1F
12) N#C/C(=C\c1c(N2CCCCC2)nc2ccccn2c1=O)C(=O)NC1CCS(=O)(=O)C1 (centres undefined)

assay / entry	7	8	9	10	11	12
PrP UTR inh	-111	-3	-1	-10	-29	-11
Autofluor counter	2474	2330	3146	2543	3731	8749
BJeLR lethal	10	1	-4	-8	1	6
RN4220 kill	5.2	5.4	4.7	3.9	-0.7	x
Sa ugtP lethal	0	5	-7	-7	0	x
Mtb hypoxia inh	x	8	10	5	3	x
Mtb hypoxia inh growth	x	3	0	6	-6	x

13) CN(C)/C=C1/OC(=O)C(C#N)=C1c1ccc(Cl)cc1
14) Cn1c(=O)c(=O)n(C)c2cc(N3CCCC3)c(NS(=O)(=O)c3ccc(F)cc3)cc21
15) CCCCCCCCCCCCCCCC[n+]1cccc(C(=O)N(CC)CC)c1
16) Cc1ccc(-n2ncc3c(N4CCC(C(N)=O)CC4)ncnc32)c(C)c1
17) COc1ccc(N2CCN(C(=O)Cc3ccc(C)cc3)CC2)cc1
18) COc1ccc(N(CC(=O)NN=C2CCN(C)CC2)S(=O)(=O)c2ccc(NC(C)=O)cc2)cc1

assay / entry	13	14	15	16	17	18
PrP UTR inh	-20	-21	-12&5	-8	-1	-4
Autofluor counter	4290	5727	3026&2806	23419*	3256	3846
BJeLR lethal	-11	16	9	3	9	-2
RN4220 kill	6.6	-0.1	100*	2.4	3.6	0.4
Sa ugtP lethal	4	-8	100*	-5	6	8
Mtb hypoxia inh	14	8	2	6	17	-3
Mtb hypoxia inh growth	0	9	-2	-2	8	-1

19) CC(C)OC(=O)CN1CCN(S(=O)(=O)c2cc(Cl)ccc2Cl)CC1
20) Cc1cccc(S(=O)(=O)Nc2nc3ccccc3nc2Nc2cccc(C(=O)O)c2)c1
21) O=C(NCc1ccccc1)C(c1ccncc1)N(C(=O)c1csnn1)c1cccc(F)c1 (centres undefined)
22) Nc1nc(N)nc(-c2ccccc2O)n1
23) Cc1ccc(-n2nnnc2SCC(=O)NCC2CCCO2)cc1C (centres undefined)
24) CCN1C(=O)[C@H]2[C@@H](c3ccc(Cl)cc3)N3C(=O)CN(CCOC)C(=O)[C@@]3(C)[C@H]2C1=O

assay / entry	19	20	21	22	23	24
PrP UTR inh	-13	-21	-18	-5	-11	-16
Autofluor counter	2199	4497	6225	2553	4707	2887
BJeLR lethal	x	-7	-5	0	x	-5
RN4220 kill	2.7	21	2.6	-10	0.0	x
Sa ugtP lethal	8	19	-2	-3	4	x
Mtb hypoxia inh	x	-10	14	4	-1	x
Mtb hypoxia inh growth	x	-11	0	3	-2	x

25) Cc1cccc(/C=N/NC(=O)Cc2cccs2)c1
26) C=CCN1c2ccccc2[C@]23C[C@@H](C(=O)OC)N(C(=O)c4ccc(Br)cc4)C2=NC(C(=O)OC)=C(C(=O)OC)[C@H]13
27) O=S(=O)(NCCc1ccc(Cl)cc1)c1cccc2cccnc12
28) Nc1ncnc(Oc2cccc3cccnc23)c1[N+](=O)[O-]
29) CCOC(=O)COc1ccc(Br)cc1C1NC(=O)NC(C)=C1C(=O)NCc1ccccc1 (centres undefined)
30) CCC(C(=O)NCCc1c[nH]c2ccc(C)cc12)c1ccccc1 (centres undefined)

assay / entry	25	26	27	28	29	30
PrP UTR inh	-54	-29	-16	67*	x	-10
Autofluor counter	3618	2947	4258	4450	9825	3197
BJeLR lethal	-15	-11	1	0	6	11
RN4220 kill	x	x	5.5	19	4.2	2.0
Sa ugtP lethal	x	x	8	12	-5	14
Mtb hypoxia inh	x	x	18	-3	2	2
Mtb hypoxia inh growth	x	x	2	7	2	-3

31) COc1ccc(C2CC(c3ccccc3)=NN2C(=O)COC(=O)C2CC2)cc1 (centres undefined)
32) COc1cc2c(cc1C1NC(=S)NC(C)=C1C(N)=O)CCCC2 (centres undefined)
33) CCOC(=O)c1c(C)c(C(=O)NCc2ccco2)c(C)n1Cc1ccccc1
34) CCc1ccc(C(=O)COC(=O)CNC(=O)Cc2ccccc2)cc1
35) Cc1ccc(COCCN2CCN(S(=O)(=O)c3ccccc3)CCC2=O)cc1
36) N#CC(C(=O)NC1CCCCC1)=C1CCCCC1

assay / entry	31	32	33	34	35	36
PrP UTR inh	-32	-10	-15	-11	12	-26
Autofluor counter	3002	2404	10293	4155	3762	2437
BJeLR lethal	1	3	-2	-6	13	-10
RN4220 kill	-5.7	2.7	4.7	x	8.5	3.2
Sa ugtP lethal	-11	-6	2	x	14	3
Mtb hypoxia inh	2	-13	9	x	-5	0
Mtb hypoxia inh growth	1	-12	8	x	-5	6

37) COc1cc(CN2CCCCCC2)cc(OC)c1OC
38) O=S(=O)(NCC(c1cccnc1)N1CCc2ccccc2C1)c1ccccc1 (centres undefined)
39) COC(=O)c1ccc(CSc2nnc3n(Cc4ccccc4OC)c(=O)c4ccccc4n23)o1
40) O=C(O)CCCN=CC1=C(O)CNC1=O
41) CC(C)Nc1nc2n(c(=O)n1)CCN2C(C)C
42) CCOC(=O)CCNC(=O)N1CCCC(C(=O)c2cc(C)c(OC)c(C)c2)C1 (centres undefined)

assay / entry	37	38	39	40	41	42
PrP UTR inh	-26	-8	-30	-30	-10	-8
Autofluor counter	4311	6490	12558	3801	2720	3497
BJeLR lethal	11	15	-14	-2	2	2
RN4220 kill	-2.0	5.8	8.3	1.9	-1.2	3.6
Sa ugtP lethal	2	1	-8	3	-6	10
Mtb hypoxia inh	10	0	2	2	x	10
Mtb hypoxia inh growth	-10	-6	4	0	x	14

An excerpt from above in order of length of the SMILES, low to high.
40) O=C(O)CCCN=CC1=C(O)CNC1=O
41) CC(C)Nc1nc2n(c(=O)n1)CCN2C(C)C
42) CCOC(=O)CCNC(=O)N1CCCC(C(=O)c2cc(C)c(OC)c(C)c2)C1 (centres undefined)

assay / entry	40	41	42
PrP UTR inh	-30	-10	-8
Autofluor counter	3801	2720	3497
BJeLR lethal	-2	2	2
RN4220 kill	1.9	-1.2	3.6
Sa ugtP lethal	3	-6	10
Mtb hypoxia inh	2	x	10
Mtb hypoxia inh growth	0	x	14

Continued.
43) COc1ccc(C(CNC(=O)C2CC2)N(C)C)cc1 (centres undefined)
44) O=C(O)c1ccccc1C=NNc1nc(N2CCCCC2)nc(N2CCCCC2)n1
45) COc1cc2c(cc1OC)C(C)N(C(C)=O)CC2 (centres undefined)
46) CCSc1nc(O)cc(=O)[nH]1
47) C[C@@]12CC(=O)NC1N(C(=O)c1ccccc1)C(c1ccccc1OC(=O)c1ccccc1)C2 (some centres undefined)
48) COc1ccc(CN2CCNC(=O)C2CC(=O)NCCCn2cccn2)cc1C (centres undefined)

assay / entry	43	44	45	46	47	48
PrP UTR inh	-15	x	-7	-12	2	-5
Autofluor counter	6823	x	7999	4028	3666	5591
BJeLR lethal	7	x	0	3	-8	11
RN4220 kill	1.4	11	-2.7	x	9.6	1.0
Sa ugtP lethal	2	-3	-9	x	2	1
Mtb hypoxia inh	3	-8	-5	x	10	-1
Mtb hypoxia inh growth	1	4	-2	x	0	-2

49) COc1ccc(Cl)cc1N1C(=O)CN(Cc2cc(OC)c(OC)c(OC)c2)C1=S
50) Cc1cc(C)cc(NC(=S)N2C3CCCC2CC(NC(=O)C2CC2)C3)c1 (centres undefined)
51) O=C(C1CC1)N1CCN(C(c2ccccc2)c2ccccc2)CC1
52) CC(C)Oc1ccc(OCCCN2CCCCCC2)cc1
53) CCOC(=O)N1CCN(C(=O)CN(c2cccc(C(F)(F)F)c2)S(=O)(=O)c2ccccc2)CC1
54) Cc1ccc(NC(=O)COc2coc(CN3CCc4ccccc4C3)cc2=O)cc1Cl

assay / entry	49	50	51	52	53	54
PrP UTR inh	2	-19	-7	-28	-15	7
Autofluor counter	3557	3027	8155	3334	7148	x
BJeLR lethal	-2	-8	3	2	-1	4
RN4220 kill	4.2	2.6	1.0	1.2	5.9	1.5
Sa ugtP lethal	3	13	17	9	14	0
Mtb hypoxia inh	7	8	10	x	3	0
Mtb hypoxia inh growth	9	-3	7	x	-1	-6

55) CCC(=O)NCc1c(C)c(C)n(Cc2ccccc2)c1-n1cccc1
56) COc1ccc(NC(=O)CN(C)C(=O)c2cc(-c3ccc(Cl)cc3)nc3ccccc23)cc1
57) Cc1nn(Cc2ccccc2)c(C)c1C(=O)NCCN1C(=O)S/C(=C\c2ccc(F)cc2)C1=O
58) COc1cc(=O)[nH]c(SC(C)C(=O)Nc2ccc3ccccc3c2)n1 (centres undefined)
59) O=C(O)c1ccc(N(c2ccccc2)c2ccccc2)cc1
60) CCn1c(O)c(N=NC(=O)CNC(=O)/C=C/c2ccco2)c2ccccc21

assay / entry	55	56	57	58	59	60
PrP UTR inh	-18	-3	-22	-8	-27	-4
Autofluor counter	4443	4786	8313	5682	4798	7998
BJeLR lethal	10	0	-4	-4	x	7
RN4220 kill	9.3	-5.2	-2.8	4.9	7.2	5.1
Sa ugtP lethal	10	4	-2	-17	18	2
Mtb hypoxia inh	10	-5	1	2	x	4
Mtb hypoxia inh growth	3	-3	6	3	x	6

61) Cc1cc(Cl)c(S(=O)(=O)N2CCCC2)cc1OCC(N)=O
62) CC(CC(=O)Nc1ccc2c(c1)OCCO2)=NNC(=O)COc1ccc(C)cc1Br
63) Cc1cc(NC(=O)COc2nnc(-c3ccccc3)c3ccccc23)no1
64) O=C(O)c1cc(-c2ccc3ccccc3n2)nc2ccccc12
65) CN(Cc1cccs1)C(=O)/C=C/c1ccccc1[N+](=O)[O-]
66) COc1ccc2c(c1OC)C(=O)N(c1ccc(C)c(C)c1)C2=O
67) Cc1noc(C)c1COc1ccc(C(=O)N2CCN(c3ccccc3O)CC2)cc1
68) Fc1ccc(-c2csc(/C=C/c3ccc4c(c3)OCO4)n2)cc1

assay / entry	61	62	63	64	65	66	67	68
PrP UTR inh	-19	x	-1	10	-10	-42	-27	-38
Autofluor counter	3372	x	4014	3084	4830	9087	5858	2901
BJeLR lethal	-3	x	x	-1	1	-16	x	10
RN4220 kill	0.2	1.5	9.9	7.6	7.2	4.4	-4.7	x
Sa ugtP lethal	-9	-4	-1	-2	5	7	-15	x
Mtb hypoxia inh	1	-2	x	-2	4	11	-12	x
Mtb hypoxia inh growth	2	-2	x	-1	-4	7	2	x

Three compounds drawn at random from those above, as already listed:
62) CC(CC(=O)Nc1ccc2c(c1)OCCO2)=NNC(=O)COc1ccc(C)cc1Br
68) Fc1ccc(-c2csc(/C=C/c3ccc4c(c3)OCO4)n2)cc1
61) Cc1cc(Cl)c(S(=O)(=O)N2CCCC2)cc1OCC(N)=O

assay / entry	62	68	61
PrP UTR inh	x	-38	-19
Autofluor counter	x	2901	3372
BJeLR lethal	x	10	-3
RN4220 kill	1.5	x	0.2
Sa ugtP lethal	-4	x	-9
Mtb hypoxia inh	-2	x	1
Mtb hypoxia inh growth	-2	x	2

An excerpt of these results, with values under each structure:
Value order – PrP UTR inh | Autofluor counter | BJeLR lethal | RN4220 kill | Sa ugtP lethal | Mtb hypoxia inh | Mtb hypoxia inh growth
66. COc1ccc2c(c1OC)C(=O)N(c1ccc(C)c(C)c1)C2=O
    -42 | 9087 | -16 | 4.4 | 7 | 11 | 7
67. Cc1noc(C)c1COc1ccc(C(=O)N2CCN(c3ccccc3O)CC2)cc1
    -27 | 5858 | x | -4.7 | -15 | -12 | 2

Assay outcomes: PubChem BioAssay, several laboratories
